AF4-AF9 inh: inhibitors of human MLL-AF4/AF9 interaction; P42568; AlphaScreen, biotin-AF4 peptide binding to FLAG-AF9; inhibition, % at 10 µM; actives 0.47% (n = 350,000);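 active = every replicate reaching a set inhibition limit, whatever the replicate mean, cut at about 25% in these data; inconclusive = mean inhibition reaches that limit but some replicates miss it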;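 note: 0% = plate neutral control median and 100% = total signal loss; the record names both 10 and 1 µM as test concentration; the first replicate is given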
Target sequence (P42568 whole entry, looked up): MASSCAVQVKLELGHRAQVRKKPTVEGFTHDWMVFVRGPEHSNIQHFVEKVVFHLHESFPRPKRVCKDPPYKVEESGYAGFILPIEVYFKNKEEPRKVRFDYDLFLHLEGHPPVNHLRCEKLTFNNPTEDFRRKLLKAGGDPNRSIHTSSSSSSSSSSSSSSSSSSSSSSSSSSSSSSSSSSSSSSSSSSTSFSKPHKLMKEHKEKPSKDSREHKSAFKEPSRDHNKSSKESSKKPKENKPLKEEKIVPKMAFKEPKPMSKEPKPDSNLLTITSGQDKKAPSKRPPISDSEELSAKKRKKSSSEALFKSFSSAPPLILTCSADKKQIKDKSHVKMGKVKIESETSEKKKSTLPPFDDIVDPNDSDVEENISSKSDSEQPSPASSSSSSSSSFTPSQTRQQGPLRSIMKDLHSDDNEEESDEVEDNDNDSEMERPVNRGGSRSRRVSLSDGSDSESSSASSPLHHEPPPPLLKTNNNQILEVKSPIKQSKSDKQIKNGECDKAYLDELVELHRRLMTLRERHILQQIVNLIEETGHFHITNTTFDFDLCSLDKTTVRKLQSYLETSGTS
Calb FLC: affects C. albicans growth with fluconazole. actives 0.57% (n = 300,000). AID 1979. growth inhibition, % (test concentration not listed). C. albicans CaCi-2 (fluconazole-resistant clinical isolate) + fluconazole, Alamar Blue growth, 48 h;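 active = most replicates above 75%; inconclusive = exactly half above 75%; inactive = most below 75%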;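 note: all wells also contain fluconazole at 8 µg/ml as a sub-toxic cotreatment; 0% = median of DMSO wells and 100% = median of geldanamycin control wells; wells of about 8 µL received 7.5 nL stock; the first replicate is given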
Beta apoptosis: beta cell apoptosis inhibition. INS-1E cytokine-induced death, ATP luminescence, 48 h; percent of positive-control rescue, neutral wells zero. actives 0.8% (n = 300,000). protection from apoptosis, % (concentration not given with the values);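 active = all replicates at 75% or more, or half of them and the mean; inconclusive = half reach 75% but not the mean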;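 note: 0% = cytokine-treated negative control wells and 100% = positive control rescue; higher means more ATP so stronger rescue from cytokine killing; wells of about 40 µL received 100 nL stock; the first replicate is given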
Ecoli rRNA inh: inhibits bacterial ribosomal RNA function over humanized ribosomes; actives 1.6% (n = 350,000); AID 720706; E. coli WT GFP vs humanized-ribosome RFP mutants, fluorescence, 24 h; stronger effect = lower value; DMSO median 0, no signal -100; GFP signal change (wild-type ribosome), % (no concentration beside the values);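 active = significant combined selectivity score with lowered wild-type GFP, culture density cut under 30%, mutant RFP and density less affected; inactive = any of these conditions unmet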; note: one replicate is shown; some compounds called inactive have numbers as strong as hits
FGF22 binding: FGF22 (human) thermal shift binding. recombinant FGF22 thermal shift, SYPRO orange fluorescence; percent of sucrose octasulfate shift, DMSO zero. calls only at 9.99 µM. actives 1.5% (n = 340,000). AID 651658;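 active = melting point raised past a set limit in the mean and every replicate; inconclusive = no clear call; three in four hits are not shown here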
Target sequence (Q9HCT0 whole entry, looked up): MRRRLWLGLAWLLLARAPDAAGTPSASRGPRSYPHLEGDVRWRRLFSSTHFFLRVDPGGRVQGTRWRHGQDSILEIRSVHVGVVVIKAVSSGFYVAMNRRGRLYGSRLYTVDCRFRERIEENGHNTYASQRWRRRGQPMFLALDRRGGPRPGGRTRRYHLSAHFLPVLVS
ALR inh: blocks human ALR sulfhydryl oxidase activity; P55789; purified ALR, DTT oxidation, H2O2 HRP-luminol luminescence; inhibition, % (no concentration beside the values); actives 3.8% (n = 290,000);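 active = mean and each replicate at 75% or more; inconclusive = only one of the two met; inactive = neither met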;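 note: stock transfer was 7.5 nL into about 7.5 µL; 0% = neutral wells and 100% = wells with inactivated enzyme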
Target sequence (P55789 whole entry, looked up): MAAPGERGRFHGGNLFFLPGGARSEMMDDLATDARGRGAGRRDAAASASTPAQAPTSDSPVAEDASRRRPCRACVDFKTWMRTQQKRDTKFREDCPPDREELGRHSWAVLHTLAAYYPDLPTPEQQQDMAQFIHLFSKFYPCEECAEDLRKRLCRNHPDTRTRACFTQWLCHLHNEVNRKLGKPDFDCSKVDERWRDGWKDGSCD
T cruzi inh: blocks replication of Trypanosoma cruzi; T. cruzi beta-gal in NIH3T3, luminescence, 90 h; AID 1885; actives 1.4% (n = 300,000); inhibition, % (concentration not given with the values);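 active = mean inhibition across valid replicates above about 55%, limit read from the data; inconclusive = mean below that limit but half or more replicates reach it; inactive = mean below it, under half of replicates reach it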;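 note: signal also drops with host cell toxicity which is not excluded here; 0% = plate median of DMSO wells and 100% = zero luminescence signal; higher percent means less beta-gal luminescence so fewer parasites; stock transfer was 50 nL into about 50 µL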
RanGTP-Impb inh: inhibitors of RanGTP-importin-beta interaction, primary screen, biochemical, FRET, CFP-Ran, YFP-importin-beta, homogeneous | cell-free CFP-Ran/YFP-importin-beta FRET ratio | inhibition, % (test concentration not listed) | actives 1.1% (n = 300,000) | AID 2216;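 active = most replicates above 15%; inconclusive = exactly half above 15%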;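 note: 0% = DMSO wells and 100% = Ran loaded with GDP instead of GTP; wells of about 40 µL received 100 nL stock; the first replicate is given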
Ecoli rRNA inh OD600: second read-out of Ecoli rRNA inh, no call of its own (marks repeat the call); OD600 change, %; measured here: OD600 growth;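 optical density of the mix in the first replicate; 0 = DMSO median and -100 = no signal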
Ecoli rRNA inh RFP: recorded beside Ecoli rRNA inh, whose call it bears; RFP signal change, %; measured here: RFP humanized mutant strains;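 first replicate; 0 = DMSO median and -100 = no signal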
Active calls of the source: *; i = inactive; ? = inconclusive; / = no result given.

SMILES	AF4-AF9 inh	Calb FLC	Beta apoptosis	Ecoli rRNA inh	Ecoli rRNA inh OD600	Ecoli rRNA inh RFP	FGF22 binding	ALR inh	T cruzi inh	RanGTP-Impb inh
COc1cccc(C(=O)Nc2nnc(-c3cccs3)s2)c1	/	1	-4	/	/	/	/	-5	0	-2.1
COc1ccc(-n2c(=S)[nH]c3sc4c(c3c2=O)CCc2ccccc2-4)cc1	/	-6	-4	/	/	/	/	-23	-11	-1.2
CCC(=O)c1ccc(OCC(O)CN2CCN(c3cccc(C(F)(F)F)c3)CC2)cc1 (stereo not given)	/	34	7	/	/	/	/	-4	38	-1.7
CCC(NC(=O)NCCCn1ccnc1)(C(F)(F)F)C(F)(F)F	/	0	-3	/	/	/	/	0	-7	-2.3
CCc1ccc(NC(=O)C(C)OC(=O)CN2C(=O)NC3(CCCC3)C2=O)cc1 (stereo not given)	3.0	/	-3	0	2	-1.1	i	/	/	/
CNc1c(N=Cc2cccnc2)c(=O)n(C)c(=O)n1C	/	?	-4	/	/	/	/	5	-8	1.3
CC(NC(=S)N1CCOCC1)c1ccccc1 (stereo not given)	/	6	-2	/	/	/	/	30	4	-0.2
CC(NC(=O)c1cc2ccccc2oc1=O)c1ccccc1 (stereo not given)	1.2	5	-6	8	3	3.0	i	0	-7	?
CCOc1c2ccc(C(=O)NCc3ccc(OC(F)(F)F)cc3)cc2nn1CC	1.6	10	-4	0	-7	-5.4	i	-1	-23	1.3
O=S(=O)(Nc1ccc(S(=O)(=O)N2CCOCC2)cc1)c1ccc(Br)cc1	1.2	0	2	-2	-13	-14	i	-15	8	-1.4
N#Cc1c(-c2ccco2)cc(C2CC2)nc1SCC(=O)c1ccccc1	/	-4	4	/	/	/	/	/	-9	-1.3
Cc1cc(=O)[nH]c(SCc2nc3ncccn3c2Br)n1	/	-6	-4	/	/	/	/	60	-29	2.7
COC(=O)c1ccccc1NC(=O)CN1CCC(NC(=O)c2ccccc2C)CC1	/	-7	-1	/	/	/	/	6	14	-3.7
N#Cc1ccc(COC(=O)c2ccc3c(=O)[nH]c(CN4CCOCC4)nc3c2)cc1	/	-31	-4	/	/	/	/	1	-9	-0.4
CCOC(=O)C1(Cc2cccc(OC)c2)CCCN(CCO)C1 (stereo not given)	3.8	7	/	6	9	-0.2	i	/	-4	1.3
CC(=O)NCC(=O)OCC(=O)c1ccc2ccccc2c1	/	1	/	/	/	/	/	-5	-9	-5.4
Cc1c(O)c(CN2CCCCC2)cc2c1oc(=O)c1ccccc12	/	6	3	/	/	/	/	18	15	-2.2
C[C@@H](O)[C@H]1O[C@]2(C)CCC[C@H]1O2	1.8	/	-4	13	20	21	i	-2	/	/
CCOC(=O)N1CCN(C(=O)C2CCN(c3ncnc4c3sc3cccc(F)c34)CC2)CC1	/	3	52	/	/	/	/	6	9	1.8
CC(=O)Nc1ccc(S(=O)(=O)N(C)CC(=O)OC2CCCCC2=O)cc1 (stereo not given)	2.7	/	-1	6	5	-1.9	i	4	/	/
O=S(=O)(Nc1ccc(-c2cn3c(n2)SCC3)cc1)c1ccccc1F	1.7	-6	-2	13	2	2.4	i	1	-4	2.7
CC[n+]1c(C)sc2sc3ccccc3c21	/	8	19	/	/	/	/	55	44	4.4
CC1Cc2ccccc2N1C(=O)CN(C)CC(=O)Nc1ccc(OC(F)(F)F)cc1 (stereo not given)	-2.6	/	0	-44	-74	-9.6	i	/	/	/
S=C(Nc1ccc(Cl)cc1Cl)NC1CCCCC1	/	0	/	/	/	/	/	-1	-16	-6.1
O=C1c2ccccc2C(=O)C12OC(c1ccccc1)C1(C(=O)c3ccccc3C1=O)C2c1ccc([N+](=O)[O-])cc1 (stereo not given)	/	18	6	/	/	/	/	-17	14	-4.3
Cc1ccn2cc(CCNS(=O)(=O)c3ccc4ccccc4c3)nc2c1	3.1	-24	-17	0	-4	-0.3	i	/	-8	2.4
C=CCn1c(SCC(=O)Nc2cc(NC(C)=O)ccc2OC)nnc1-c1cccnc1	/	3	-2	-2	4	-1.8	/	-7	-12	4.5
O=[N+]([O-])c1ccccc1S(=O)(=O)Nc1ncccn1	-19	-8	-2	2	3	-3.6	i	-38	11	-1.0
Cc1ccc(C)c(S(=O)(=O)N2CCN(C(=O)c3ccncc3)CC2)c1	-1.2	-1	-2	-1	-4	-1.6	i	-4	-2	/
CC(C)C(C)NC(=O)COC(=O)c1cc(S(=O)(=O)N(C)C)ccc1N1CCCC1 (stereo not given)	/	-14	-7	/	/	/	/	-4	9	-1.5
Cc1ccc(C(=O)OCC(=O)N2CC(C)OC(C)C2)cc1 (stereo not given)	1.4	-2	1	10	11	1.1	i	-5	-3	6.3
COc1cccc(NC(=O)CN2CCN(CC(=O)Nc3ccc(F)cc3)CC2)c1	-4.9	-6	/	4	7	0.0	i	1	6	?
O=C1CCCC(=O)C1=C1SCCCS1	/	-15	2	/	/	/	/	3	-29	4.8
CN(C)/C=C(\C#N)C(=O)c1cccnc1Oc1cccc(F)c1	/	-4	0	/	/	/	/	-3	-6	-2.0
C/C(=N/OC(=O)c1c(-c2ccccc2Cl)noc1C)c1cnccn1	0.3	-5	-4	-7	-17	-1.6	i	-27	0	1.5
Cc1oc2cc(OC(C)C(=O)O)ccc2c(=O)c1Oc1ccccc1 (stereo not given)	/	5	-6	/	/	/	/	1	-3	0.8
CCN(CC(=O)NCc1ccc(F)cc1)C(=O)c1cc2ccccc2o1	-2.3	-6	0	4	4	0.9	i	-11	-2	0.2
CC(=O)Nc1ccc(S(=O)(=O)Nc2ccc3c(c2)OCCO3)cc1	/	-6	-1	/	/	/	/	-2	-8	-3.8
O=C(COC(=O)c1ccncc1)Nc1cc(Cl)ccc1Cl	-15	13	-3	31	19	-4.6	i	-7	-11	-2.5
Cc1c(Cl)cccc1NC(CC(=O)c1ccccc1)C(=O)O (stereo not given)	/	-6	-10	/	/	/	/	59	-20	2.3
CCSc1nnc(NC(=O)CSc2c(Cl)cccc2Cl)s1	/	-7	2	/	/	/	/	-10	6	-1.3
COc1ccc(-n2c(Cc3cccn3C)nnc2SCC(=O)Nc2ccc(F)cc2)cc1	9.7	1	-10	-1	-1	-0.4	/	10	3	0.2
O=C(NC1CC1)c1ccc(CSCc2ccccc2Cl)o1	-0.4	-2	-2	-17	-25	-10	i	84*	-9	-2.7
CCc1nnc(NC(=O)CSc2nnc(CNc3ccc(OC)cc3)n2C)s1	-2.7	24	-3	14	14	-1.3	i	/	2	4.9
Cc1ccc(-c2cc(C(F)(F)F)nn2-c2ccc(S(N)(=O)=O)cc2)cc1	1.3	37	-4	/	/	/	i	-2	-6	0.3
Cn1c(COc2ccccc2)nc2ccccc21	-0.5	6	-2	2	10	0.9	i	-36	5	-4.0
Cc1cc(=O)oc2cc(OCc3ccc(C(=O)OCC(=O)Nc4ccc(N(C)C)cc4)cc3)ccc12	0.0	?	/	-9	-12	-3.6	i	/	-1	2.2
CC1CC(C)CN(C(=S)Nc2ccc3nc4n(c(=O)c3c2)CCCCC4)C1 (stereo not given)	1.0	-5	2	-11	-10	-5.6	i	16	4	-0.6
O=C(CN1C(=O)NC2(CCCC2)C1=O)Nc1ccccc1N1CCCCC1	4.9	-2	-4	-6	-4	1.0	i	33	-1	2.5
Cc1cc(C)c(C(=O)CN2C(=O)NC3(CCC(C)CC3)C2=O)cc1C (stereo not given)	-3.1	1	-3	13	-1	2.2	i	-2	10	3.8
Cc1onc(-c2ccc(Cl)cc2Cl)c1-c1csc(COc2ccccc2)n1	-1.2	2	/	19	16	1.8	i	0	/	-1.3
CCOC(=O)c1c(C)[nH]c(C(=O)COC(=O)c2cc(C)oc2C)c1C	-3.2	/	-4	7	1	0.6	/	-1	/	/
CC(C)(C)C(=O)/C=C(\N)c1ccccn1	/	-2	/	/	/	/	/	-30	-2	-0.5
COc1cccc(OCc2nnc(SCC(=O)NNC(=O)C3CCCCC3)n2C)c1	-1.6	-4	-2	18	1	11	i	-4	-7	0.1
CC(C)(C)NS(=O)(=O)c1cc(C(=O)Nc2sccc2C#N)ccc1Cl	/	6	/	/	/	/	/	65	-14	-13
O=C(Nc1ncccc1O)c1cc2ccccc2o1	-6.5	7	2	6	5	-0.6	i	-22	8	?
Cc1cnc(C)c(N2CCC(C(=O)NCc3cccs3)CC2)n1	/	7	-4	/	/	/	/	2	0	2.2
CCN(CC)S(=O)(=O)c1ccc(C(=O)NC(=S)N(CCC#N)Cc2cccnc2)cc1	-13	30	0	0	5	-0.1	i	-29	-4	3.9
CCN(CC)S(=O)(=O)c1ccc(N2CCCC2)c(NC(=O)Cc2ccccc2)c1	13	-17	-2	-3	5	-2.5	i	/	11	6.6
O=C(NCCCN1CCOCC1)C(=O)N/N=C/c1c(Cl)cccc1Cl	-3.5	-13	0	8	23	2.5	i	-28	-14	-3.6
Next part
SMILES	AF4-AF9 inh	Calb FLC	Beta apoptosis	Ecoli rRNA inh	Ecoli rRNA inh OD600	Ecoli rRNA inh RFP	FGF22 binding	ALR inh	T cruzi inh	RanGTP-Impb inh
O=C(NCc1ccco1)c1ccc(=O)[nH]n1	/	-1	1	/	/	/	/	/	-1	-0.1
CCCOc1ccc(/C=C/C(=O)N2CCOCC2)cc1	-19	14	3	9	3	-0.6	i	-7	3	-3.1
CCC(C)(C)NC(=O)C(c1ccc(C)cc1)N(Cc1ccco1)C(=O)CCC(=O)Nc1nccs1 (stereo not given)	/	8	5	/	/	/	/	2	9	-2.1
CC(C)(C)c1nc2sc3c(c2c(=O)o1)CCCC3	/	6	-7	/	/	/	/	-1	-9	?
COc1ccccc1Cn1c(-c2ccccc2OC)nc2ccccc21	/	?	/	/	/	/	/	-6	11	1.3
CCCCn1c(=O)nc2n(-c3ccc(Cl)cc3)c3ccccc3cc-2c1=O	-2.6	13	-1	-4	-24	-4.9	i	/	6	59*
Cn1cccc1/C=N/NC(=O)C12CC3CC(CC(C3)C1)C2	/	-2	-1	/	/	/	/	-7	-2	6.9
Cc1nn(C)c(Oc2ccccc2)c1CCNS(=O)(=O)c1ccccc1	/	2	-2	/	/	/	/	-5	-21	1.7
CCOc1ccc(/C(O)=C2/C(=O)C(=O)N(CCOCCO)C2c2ccccc2)cc1 (stereo not given)	/	-3	-3	/	/	/	/	0	-1	?
CCOC(=O)N1CCN(CC(=O)Nc2c(C(=O)OC)[nH]c3ccccc23)CC1	/	-4	/	/	/	/	/	0	-10	-3.1
COCCn1c(C)cc(C(=O)CSc2ccc(NC(C)=O)cc2)c1C	/	-1	3	/	/	/	/	98*	-9	-0.8
Cc1ccc(NC(=O)C2CCN(S(=O)(=O)c3ccc4c(c3)OCCO4)CC2)nc1	1.2	8	1	6	4	1.3	i	-2	-7	4.7
CCC(OC(=O)CN1C(=O)C(=O)c2ccccc21)C(=O)Nc1ccc(S(N)(=O)=O)cc1 (stereo not given)	-0.7	-6	-5	13	10	-2.0	/	-16	-2	0.4
CCCc1cc(=O)oc2c(C)c(OCC(=O)N3CCC(C(=O)O)(c4ccccc4)CC3)ccc12	-0.7	-9	1	-24	-8	-11	i	3	0	-1.0
CCOc1cc(/C=N/O)cc(Br)c1OCC(=O)NCc1ccccc1	-3.0	2	0	-19	-18	-8.4	i	-1	9	-2.8

Source: PubChem

These rows are one share of the data; count on the stated rates, not on these rows.
